Bioassay records: PubChem BioAssay, National Center for Advancing Translational Sciences (NCATS)
AmpC inh no det = blocks E. coli AmpC beta-lactamase in absence of detergent. P00811. Potency, µM (top dose mostly 28.7 µM), without a hit: at the top dose activity change, negative = inhibition. AmpC nitrocefin hydrolysis, absorbance 480 nm, no detergent; potencies from a single point are estimates. 71,000 compounds, 1.8% hits. AID 585; active = falling curve, for most hits resting on a single point; inconclusive = weak or doubtful change; inactive = flat or rising curve; note: % of control where 0% means no effect; about half of the hits show no inhibition at the top dose; a quarter of the inactives give rising signals
Target sequence (P00811 whole entry, looked up): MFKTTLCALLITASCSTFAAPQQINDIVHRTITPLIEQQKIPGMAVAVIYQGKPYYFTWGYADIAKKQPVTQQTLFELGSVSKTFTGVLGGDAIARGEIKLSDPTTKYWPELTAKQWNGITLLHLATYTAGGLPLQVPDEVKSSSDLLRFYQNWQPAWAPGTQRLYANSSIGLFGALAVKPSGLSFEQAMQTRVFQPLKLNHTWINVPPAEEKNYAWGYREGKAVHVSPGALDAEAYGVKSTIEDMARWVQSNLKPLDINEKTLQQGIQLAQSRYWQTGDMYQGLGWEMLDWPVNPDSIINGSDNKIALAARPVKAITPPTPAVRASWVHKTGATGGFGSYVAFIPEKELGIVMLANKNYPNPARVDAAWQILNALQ
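Enzyme, pH 7.0 phosphate. Compound titrations were pre-incubated with AmpC for 15 min at room temperature before nitrocefin (stock 800 uM) addition; product formation was recorded at 480 nm every 20 s for 4 min.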
Starred values were filed as active, the others as inactive; [ ] = dose if it differs, or a comment. Potency is the fitted concentration of half-maximal effect. The list is partial; rates above refer to the full screens.

SMILES | AmpC inh no det
O=C(NCc1ccccn1)c1ccc(CS(=O)(=O)Cc2ccc(Cl)cc2)o1 | 5%
CCOC(=O)C1CCCN(C(=O)c2ccco2)C1 (stereo unspecified) | 8%
COc1ccccc1C1/C(=C(/O)c2ccccc2)C(=O)C(=O)N1CC(C)O (stereo unspecified) | -6%
O=C(Nc1ccc2c(c1)CCC2)C1CCN(c2ncccn2)CC1 | 20%
COC(=O)CNc1n[nH]c(=S)[nH]c1=O | -2%
Cc1ccc(NC(=O)CSC2=C(C#N)C(c3ccco3)C3=C(CC(C)(C)CC3=O)N2)cc1 (stereo unspecified) | -11%
C[C@H](Oc1ccccc1)C(=O)N[C@@H]1C(=O)N2[C@@H]1SC(C)(C)[C@@H]2C(=O)O | 0.25µM*
CCOc1cc(C(=O)N(C)c2ccccc2)cc(OCC)c1OCC | 50%
CC(C)Cn1c(N)c(C(=O)NCC2CCCO2)c2nc3ccccc3nc21 (stereo unspecified) | 139%
CCc1ccc(-c2nc(CN3CCC(C(=O)NCc4ccc(F)cc4)CC3)c(C)o2)cc1 | 115%
c1ccc2sc(N3CCN(Cc4ccc5c(c4)OCO5)CC3)nc2c1 | 6%
COc1cccc(CNC(=O)C2CCN(S(=O)(=O)N3CCCC3)CC2)c1 | 2%
Fc1ccc(-n2[nH]nnc2=S)cc1N1CCCC1 | -3%
COC(=O)C(O)(c1c(C)[nH]n(-c2ccccc2)c1=O)C(F)(F)F (stereo unspecified) | -5%
CC(C)(C)NC[C@H](O)c1cc(Cl)c(N)c(Cl)c1 | 1%[12.8 µM]
CCOC(=O)C(CC(C)C)CP(=O)(O)CNC(=O)OCc1ccccc1 (stereo unspecified) | 10%
O=C(CCCN1C(=O)c2ccccc2C1=O)Nc1ccc(Br)cn1 | -4%
Cc1ccc(C2/C(=C(/O)c3ccccc3)C(=O)C(=O)N2CCN2CCOCC2)o1 (stereo unspecified) | 14%
CCOC(=O)c1ccc(NC(=O)COc2ccc(-n3cnnn3)cc2)cc1 | 10%
CCc1cc2c(=O)n(Cc3ccco3)c(SCC(=O)N3CCCc4ccccc43)nc2s1 | 5%
COc1ccc(Cn2nnnc2C(CC(C)C)N2CCN(c3ccccc3)CC2)cc1 (stereo unspecified) | 43%
Cc1nnc(NC(=O)C2C3C=CC(O3)C2C(=O)O)s1 (stereo unspecified) | 0%
Cn1c(N)c(C(=O)COC(=O)c2cccs2)c(=O)n(C)c1=O | -6%
Cc1nc(NC(=O)COC(=O)C(NC(=O)c2ccco2)C(C)C)c(Cl)cc1Cl (stereo unspecified) | 18%
COc1cccc(-c2nc(CS(=O)(=O)CC(=O)NCc3ccccc3OC)c(C)o2)c1 | 64%
Continuation.
SMILES | AmpC inh no det
O=C1c2oc3ccccc3c(=O)c2C(c2ccccn2)N1Cc1ccccc1 (stereo unspecified) | 11%
CC(=O)NCc1nc2ccccc2n1Cc1ccccc1F | 4%
Cc1ccc(Cn2nnc3c(=O)n(CC(=O)NCc4ccco4)cnc32)cc1 | 3%
CCCCCCc1ccc(-c2ncc(N)cn2)cc1 | 111%
CCOC(=O)c1ccc(Cn2c(-c3ccccc3)nnc2-c2ccccc2)o1 | 55%
CCC(C(=O)NC1CCCC1)N(Cc1ccc2c(c1)OCO2)C(=O)c1snc(C(N)=O)c1N (stereo unspecified) | 39%
C/C=C/c1ccc2c(c1)OCO2 | -15%
COc1ccc(S(=O)(=O)NCCCN2CCOCC2)c2ccccc12 | 22%
Cc1ccc(-c2nc3nc4ccccc4nc3n2Cc2ccco2)cc1 | 13%
COc1nc(/C(N)=N/O)nc(N2CCCCC2)n1 | 5%
COc1ccccc1-c1cncnc1Nc1ccc(F)cc1 | 6%
CC1CCN(c2c(NCc3ccc(C(=O)N4c5ccccc5CC4C)cc3)c(=O)c2=O)CC1 (stereo unspecified) | 18%
CCCCCn1c(=O)c(C(=O)Nc2ccncc2)c(O)c2ccccc21 | 4%
Cc1ccc(/C=C/C2=Cc3c(sc(NC(=O)CSc4n[nH]c(N)n4)c3C#N)C(C)(C)C2)o1 | -9%
O=C(O)CNS(=O)(=O)c1ccc(Br)s1 | -8%
CC/C=C1/OC(=O)c2ccccc21 | -7%
CSc1ncccc1C(=O)OCC(=O)NC1CCS(=O)(=O)C1 (stereo unspecified) | 1%
COc1ccccc1C1(CC(=O)O)CCOC(C)(C)C1 (stereo unspecified) | -7%
C[C@@H]1O[C@H](C[N+](C)(C)C)CS1 | 8%
COc1cc(OC)cc(C(=O)N2CCN(c3ccccc3F)CC2)c1 | 46%
O=C=Nc1ccc(Cc2ccc(N=C=O)cc2)cc1 | 16µM*
CCOC(=O)CN1CC23C=CC(O2)C(C(=O)Nc2cc(OC)ccc2OC)C3C1=O (stereo unspecified) | 5%
Cc1ccc(CNC(=O)c2cccc(OCc3c(C)noc3C)c2)cc1 | 3%
CCN1C(=O)C(C(=O)Nc2ccc(OC)cc2)C2CC1(C)Oc1ccccc12 (stereo unspecified) | 10%
CCNS(=O)(=O)c1ccc(OC)c(C)c1 | -8%
Other records follow.
SMILES | AmpC inh no det
Cc1nn2c(-c3cccc(NC(=O)c4ccco4)c3)nnc2c2ccccc12 | -14%
CCOC(=O)C1=C(N)OC2=C(C(=O)CCC2)C1c1ccc(C)s1 (stereo unspecified) | 3%
COc1ccccc1NC(=O)N1CCCC1C(=O)NC12CC3CC(CC(C3)C1)C2 (stereo unspecified) | 45%
O=C1c2ccccc2C(=O)N1CSc1ncccn1 | 2%
CCC(=O)N1CCc2cc(Br)cc(S(=O)(=O)N3CCN(C(=O)c4ccco4)CC3)c21 | 96%
O=C(c1ccc(COc2ccccc2Br)o1)N1CCCCCC1 | 55%
O=C(OCC(=O)c1c[nH]c2ccccc12)C1=COCCO1 | -14%
COc1ccc(C2C(C(=O)N3CCCC3)CC(=O)N2c2ccc(OC)cc2)cc1 (stereo unspecified) | 68%
O=c1ccn(Cc2ccccc2)c(=O)n1Cc1ccccc1 | 9%
O=c1c(-c2ccc(Cl)cc2)nc2cnc(N3CCOCC3)nc2n1-c1ccccc1 | -2%
COc1ccc(CC2C(=O)NC(=O)NC2=O)c(OC)c1 | -1%
CCc1ccc(NC(=O)CSc2nnc(CNC(=O)c3c(F)cccc3Cl)o2)cc1 | 14%
Cc1cc(NC(=O)CSc2nc3ccccc3n2CC(=O)N2CC(C)CC(C)C2)no1 (stereo unspecified) | 24%
Cn1c(=O)cc(SCC(=O)N2CCN(c3ccccn3)CC2)c2ccccc21 | 97%
Fc1cccc(Cl)c1Cn1nnc2c(-n3ccnc3)ncnc21 | 6%
CCOC(=O)C1(CC)NC(c2ccc(N(C)C)cc2)C2C(=O)N(C)C(=O)C21 (stereo unspecified) | 4%
Cn1cc(S(=O)(=O)NCc2ccco2)c(=O)n(C)c1=O | 55%
CC(=O)N1CCCc2cc(S(=O)(=O)NCCC3=CCCCC3)ccc21 | 41%
CCCC(=O)N1CC2(CCC)CN(C(=O)CCC)CC(CCC)(C1)C2=O | 32%
CCCCNC(=O)CC(=O)Nc1ccccc1C(=O)O | -4%
CCC/C=C(\CCC)C(NC(=O)c1ccccc1)c1ccccc1 (stereo unspecified) | -3%
CC1C(C#N)=C(N)OC2=C1C(=O)CCC2 (stereo unspecified) | -5%
COC(=O)c1sccc1NC(=O)CSc1nnnn1-c1ccccc1F | -14%
COc1ccc(OC)c(S(=O)(=O)NCCO)c1 | 2%
CC12CC3CC(C)(C1)CC(C(=O)Nc1nn[nH]n1)(C3)C2 | -3%
Other entries
SMILES | AmpC inh no det
C=C(C)COc1ccc2oc(C)c(C(=O)OCCOC)c2c1 | 90%
O=C(Nc1cccc2cccnc12)c1cccnc1 | -11%
CC[N+](CC)(CC)C/C(N)=N/O | -2%
COc1ccc(Cc2nc(-c3cccs3)no2)cc1OC | 4µM*[single pt active]
COc1ccc(NC(=O)c2ocnc2C)cc1OC | -7%
CC(=O)OCC1OC(n2ccc(=O)[nH]c2=O)C(O)C1O (stereo unspecified) | -14%
CSc1nc(C)cc(OCC(=O)n2nc(C)cc2C)n1 | 26%
CCCCOc1ccc(Cl)cc1CSc1nnc(C)n1N | 35%
Cc1ccc(-c2nc(CS(=O)CC(=O)NC3CCC(C)CC3)c(C)o2)cc1 (stereo unspecified) | 127%
COc1ccc(-c2nc3cnc(N4CCN(C)CC4)nc3n(-c3ccc(OC)cc3)c2=O)cc1 | 151%
Cc1oc(-c2ccccc2F)nc1CSCC(=O)NCc1ccc2c(c1)OCO2 | 38%
O=C(N1CCOCC1)N1CCN(S(=O)(=O)N2CCCCC2)CC1 | 5%
CN1CCN(c2ccc(NC(=O)COc3ccccc3Cl)cc2)CC1 | 33%
CSC(=NCCCN1CCOCC1)NS(=O)(=O)c1cccs1 | -23%
Cc1ccc(S(=O)(=O)N2CCCC2C(=O)N2CCCCCC2)cc1 (stereo unspecified) | 24%
O=C(O)CCn1c(=O)c2ccccc2c2ccccc2c1=O | -2%
CC(C)CC1NC(=O)N(CC(=O)N2CCN(S(=O)(=O)c3ccc(Cl)cc3)CC2)C1=O (stereo unspecified) | 83%
CC[C@H](Oc1ccc(Cl)cc1)C(=O)OC1C[C@H]2CC[C@@H](C1)N2C (stereo partly specified) | 19%
Cn1nnc(C(O)CN2CCOCC2)n1 (stereo unspecified) | -7%
Cc1ccc(C)c(C(=O)CCC(=O)Nc2cccnc2)c1 | 13%
Cc1cc(C(F)F)n2nc(C(=O)Nc3ccc(F)cc3F)nc2n1 | -2%
OCCNc1nc(C2CC2)nc2c1nnn2Cc1ccccc1Cl | 61%
COc1cc(OC)c(C(=O)NC2CCCCCC2)cc1OC | 58%
COc1ccc(S(=O)(=O)N2CCC(C(=O)NCCc3ccc4c(c3)OCO4)CC2)cc1 | 19%
CCOC(=O)CNC(=O)Cn1cnc2c(nnn2-c2ccc(C)cc2)c1=O | 14%

Quoted at random: five records from the list.
SMILES | AmpC inh no det
O=C(N1CCOCC1)N1CCN(S(=O)(=O)N2CCCCC2)CC1 | 5%
Cn1nnc(C(O)CN2CCOCC2)n1 (stereo unspecified) | -7%
COc1ccc(S(=O)(=O)N2CCC(C(=O)NCCc3ccc4c(c3)OCO4)CC2)cc1 | 19%
Cc1oc(-c2ccccc2F)nc1CSCC(=O)NCc1ccc2c(c1)OCO2 | 38%
CC(=O)OCC1OC(n2ccc(=O)[nH]c2=O)C(O)C1O (stereo unspecified) | -14%

Given with tabs: part of the list above.
SMILES	AmpC inh no det
C/C=C/c1ccc2c(c1)OCO2	-15%
CN1CCN(c2ccc(NC(=O)COc3ccccc3Cl)cc2)CC1	33%
CC1CCN(c2c(NCc3ccc(C(=O)N4c5ccccc5CC4C)cc3)c(=O)c2=O)CC1 (stereo unspecified)	18%
COc1cc(OC)c(C(=O)NC2CCCCCC2)cc1OC	58%
CC/C=C1/OC(=O)c2ccccc21	-7%
Cc1ccc(C)c(C(=O)CCC(=O)Nc2cccnc2)c1	13%
COc1cc(OC)cc(C(=O)N2CCN(c3ccccc3F)CC2)c1	46%

Ordered by length of the SMILES (ascending): some entries from above
SMILES | AmpC inh no det
Cn1nnc(C(O)CN2CCOCC2)n1 (stereo unspecified) | -7%
CC(=O)OCC1OC(n2ccc(=O)[nH]c2=O)C(O)C1O (stereo unspecified) | -14%
CC(C)CC1NC(=O)N(CC(=O)N2CCN(S(=O)(=O)c3ccc(Cl)cc3)CC2)C1=O (stereo unspecified) | 83%

Next results.
SMILES | AmpC inh no det
N#Cc1cccc(-n2nnnc2-c2ccccn2)c1 | -3%
Fc1ccc2nc3n(c2c1F)CCCCCC3 | 2%
NC(=O)C1(N2CCCCC2)CCN(Cc2ccccc2Cl)CC1 | 3%
CCOP1(=O)C=C(C(C)(C)C)OC1c1ccc(F)cc1 (stereo unspecified) | 46%
Cc1cccc2cc(CN(CCCN3CCOCC3)Cc3nnnn3C(C)(C)C)c(=O)[nH]c12 | 56%
CN(C)CCNC(=O)Cn1nc(-c2ccc(Cl)cc2)ccc1=O | 3%
O=C(N1CCC(O)(c2cccnc2)CC1)C12CC3CC(CC(C3)C1)C2 | 60%
CSc1nnc(-c2ccccc2)n1C | -14%
CCCCCCCCCCCCCCCC(=O)NC(C)C | 1%
CCn1nc(C(=O)OCC(=O)c2cc(C)n(Cc3cccs3)c2C)c2ccccc2c1=O | 43%
COc1ccc2nc(C)cc(N3CC(C)OC(C)C3)c2c1 (stereo unspecified) | 7%
Cc1nc(CC(=O)N2CCN(c3cccc(C)c3C)CC2)cs1 | 60%
COc1ccc(CNc2nc3nc(C)cc(C)n3n2)cc1OC | 7%
CCOc1ccc(NC(=O)N(CCC(C)C)C(C)c2ccco2)cc1 (stereo unspecified) | 6%
C=CCOC(=O)C1=C(C)NC(=O)NC1c1ccc(OC(=O)c2ccco2)c(OC)c1 (stereo unspecified) | 37%
COc1cc2c(cc1OC)C(c1cccc(OC)c1OC)CC(=O)N2 (stereo unspecified) | 4%
O=C(CSc1nnc(Cc2cccs2)n1C1CCCCC1)N1CCN(C(=O)c2ccco2)CC1 | 106%
CC(=O)OC1=CC2=CC[C@H]3[C@H]4CCC(=O)[C@@]4(C)CC(=O)[C@]3(S)[C@]2(C)CC1 | 14%[5.75 µM]
CCN(CC)CC(=O)N(CC(=O)Nc1c(C)cc(C)cc1C)C1CCCCC1 | -2%
CCOC(=O)c1c(N)sc2c1CCS(=O)(=O)C2 | -11%
CCN(Cc1ccccc1)Cc1cc(OC)cc(OC)c1 | 4%
CC1CCCCC1NC(=O)C1CCN(S(=O)(=O)N2CCOCC2)CC1 (stereo unspecified) | -2%
Nc1ccc2c(C(F)(F)F)cc(=O)oc2c1 | -11%
